# Bioassay records as filed in PubChem BioAssay.
# Rce1 inhib: yeast Ras-converting enzyme inhibition; Q03530; yeast membranes, quenched prenylated peptide cleavage fluorescence; calls only; actives 0.27% (n = 290,000);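 active = fall in fluorescence gain of 50% or more versus controls, with final raw signal at or below 3038400; inconclusive = same 50% fall but final raw signal above 3038400; inactive = fall in fluorescence gain under 50%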;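 also: plate controls were neutral control wells for no effect and wells lacking membranes for full effect; tested at 10 µM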
# Env fusion inh: inhibitors of HIV Env-mediated cell fusion. inhibition, % at 12.3 µM. actives 1.1% (n = 360,000). AID 651610. HeLa-JRFL Env/CEM21 cell fusion, luciferase;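 active = mean replicate inhibition score of at least 50 and every replicate individually at or above 50; inconclusive = only one of the two criteria met; inactive = mean below 50 and not all replicates reaching 50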;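 also: 0% = plate neutral controls and 100% = maraviroc near 300 nM; one replicate is shown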
# eIF4H inh: inhibitors of RNA binding by human eIF4H. Q15056. eIF4H fluorescence polarization binding assay. inhibition, % at 35 µM. actives 0.94% (n = 290,000). AID 2012;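 active = 50% or more with normal probe brightness, or confirmed in later tests; inconclusive = above 50% with abnormal brightness, or retests that disagree; inactive = below 50% or failed in later tests; about a fifth of its hits are not listed in these tables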;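 also: calls also rest on retests at 20 µM and on dose response follow-up; 0% = protein and probe with vehicle and 100% = probe without protein; strong numbers were not always called active; many hits fall short of the cut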
# UUG fidelity: yeast start codon fidelity modulation. S. cerevisiae UUG-firefly luciferase reporter, luminescence/redox ratio. activity score, % at 18.7 µM. actives 0.13% (n = 350,000);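 active = replicate mean at a twofold rise or more, about +100% in these data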;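 also: firefly luciferase made from a UUG start codon reports start codon fidelity; reporter light over untreated wells divided by growth signal over untreated wells; some hits fall short of that in this replicate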
# CSC inhib: cancer stem cell inhibition | cancer stem cell-like cells viability, luminescence | actives 1.1% (n = 300,000) | inhibition, % at 7.5 µM | AID 2717;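 active = mean at 75% or more and at least half the replicates too; inconclusive = mean and replicates disagree; tested in HMLE shEcad cells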;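 also: 0% = median of negative and 100% = median of positive control wells; the first replicate is given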
# MT1-MMP act inh: inhibitors of human MT1-MMP activation | P50281 | HT1080 RFP-PRO-GFP cells, GFP/RFP ratio fluorescence, overnight; percent of plate control window, DMSO zero | GFP/RFP ratio change, % at 20 µM | actives 0.061% (n = 360,000);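 active = GFP/RFP ratio change of at least 30% with cell ATP level not reduced by more than half and red fluorescence within 50% of control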; also: strong numbers were not always called active
#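 Material: RFP-PRO-GFP reporter HT1080 cells. Dosing: single-point 20 µM compound, 1% DMSO. Controls: DMSO and RFP-L50D-GFP cell wells. Timing: cells overnight before dosing, compound overnight, 37 °C, 5% CO2. Measure: GFP/RFP fluorescence ratio.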
# PABP FP inh: blocks human PABP binding to poly(A) RNA | P11940 | fluorescence polarization | inhibition, % at 35 µM | actives 1% (n = 290,000) | AID 2014;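 active = 50% or more with normal probe brightness, or confirmed in later tests; inconclusive = above 50% with abnormal brightness, or retests that disagree; inactive = below 50% or failed in later tests; about a fifth of its hits are not listed in these tables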;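 also: calls also rest on retests at 20 µM and on dose response follow-up; controls were probe without protein and protein plus probe with vehicle; some compounds called inactive have numbers as strong as hits; many hits fall short of the cut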
# Target sequence (P11940 whole entry, looked up): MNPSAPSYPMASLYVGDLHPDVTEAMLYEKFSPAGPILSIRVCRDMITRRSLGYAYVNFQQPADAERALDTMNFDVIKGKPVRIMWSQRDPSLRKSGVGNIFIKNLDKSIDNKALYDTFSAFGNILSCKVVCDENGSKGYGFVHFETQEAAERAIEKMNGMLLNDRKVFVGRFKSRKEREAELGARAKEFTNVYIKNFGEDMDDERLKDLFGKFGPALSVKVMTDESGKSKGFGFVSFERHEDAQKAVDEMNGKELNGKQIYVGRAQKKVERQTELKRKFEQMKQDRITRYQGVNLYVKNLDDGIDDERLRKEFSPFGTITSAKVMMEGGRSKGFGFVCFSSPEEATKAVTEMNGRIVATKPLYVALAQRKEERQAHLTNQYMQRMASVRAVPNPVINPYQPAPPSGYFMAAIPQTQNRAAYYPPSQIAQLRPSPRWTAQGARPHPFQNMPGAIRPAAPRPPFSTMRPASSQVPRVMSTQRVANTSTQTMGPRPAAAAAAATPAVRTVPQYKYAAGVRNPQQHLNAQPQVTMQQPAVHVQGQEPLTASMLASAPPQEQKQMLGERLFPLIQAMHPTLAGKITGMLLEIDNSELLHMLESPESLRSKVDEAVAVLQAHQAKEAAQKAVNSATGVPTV
# MT1-MMP act inh RFP: also measured in MT1-MMP act inh; calls as there; RFP signal change, %; measured here: RFP expression control read;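 0 = vehicle wells; hits needed this value within 50% of zero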
# * hit, by the source's call; i = inactive; u = inconclusive; x = not tested or not shown; & = joins results of further samples.
SMILES,Rce1 inhib,Env fusion inh,eIF4H inh,UUG fidelity,CSC inhib,MT1-MMP act inh,MT1-MMP act inh RFP,PABP FP inh
CCN(c1ccc(F)cc1)S(=O)(=O)c1ccc2[nH]cc(C(=O)NCCCN3CCOCC3)c(=O)c2c1,i,19.4,-10.7,x,-2.6,-1.9,0.2,-5.0
CC[n+]1c(C)sc2cc(C)ccc21,i,3.2,-10.8,1.1,0.9,-2.1,4.7,32.8
Cc1ccc(-c2ccc([C@H]3[C@H]4C=CC[C@@H](C)[C@@H]4C(=O)N3Cc3ccccc3)c(F)c2)cc1,i,16.0,-11.3,-1.5,40.7,0.1,-12.9,-11.2
CCCCC(=O)NC(c1ccc(OC)cc1)c1ccc2cccnc2c1O (centres undefined),x,31.3,x,-24.8,x,11.0,-15.1,x
CCOC(=O)/C(C(N)=NC(C)C)=C(\O)c1ccccc1,x,-18.6,2.8,1.9,-16.2,4.1,1.6,1.6
CC1CCCCN1CCCNc1c(C=O)c(=O)[nH]c2ccccc12 (centres undefined),i,7.8,1.5,2.0,-11.8,-4.0,-0.3,26.3
Cc1ccc(C(=O)NCC(=O)OC(C)C(=O)Nc2ccc(N(C)C)cc2)cc1C (centres undefined),i,6.3,-5.3,x,-0.4,-1.2,7.0,-4.4
Cc1ccccc1-c1nc(CN2CCC(C(=O)NCCN3CCOCC3)CC2)c(C)o1,i,9.3,-0.5,x,-10.3,3.5,4.2,-1.2
COc1ccc(N2C(=O)CC(NNC(=O)c3ccc(Br)s3)C2=O)cc1 (centres undefined),i,-3.3,-14.0,x,-7.2,1.8,4.7,-9.5
COc1ccc(-c2nc3ccc(Cl)cn3c2Cc2ccccc2)cc1OC,x,-65.0,x,-3.6,x,5.0,10.4,x
Cc1[nH]c(C)c(S(=O)(=O)N2CCN(c3ccccc3)CC2)c1C(=O)N1CCCC1,i,24.8,8.5,3.5,-4.8,0.8,0.0,3.6
CCCc1n[nH]c(=O)c2c1nnn2Cc1ccccc1,i,-2.6,3.9,-22.2,-13.1,2.3,4.1,-5.5
O=C(O)c1ccc(O)cc1O,x,x,x,1.2,-15.8,1.1,5.7,x
CC(=O)Nc1ccc(/C=C2\Sc3ccccc3C2=O)cc1,i,-294.7,8.7,x,-5.8,4.3,4.4,-12.6
CCN1CCCC1CN(Cc1cc2ccc(C)cc2[nH]c1=O)C(=S)Nc1ccccc1OC (centres undefined),i,1.8,13.2,-7.8,x,-2.1,-4.6,-5.9
C=C1SC(=Nc2c(C)cccc2Cl)N(C(=O)c2sc3ccccc3c2Cl)C12CCCCC2,i,13.3,2.1,-16.3,17.3,-4.6,2.0,5.7
CC(C)C[C@H]1CN=C(Nc2ccccc2)N1CC1CCCCC1,i,-8.2,-9.3,-1.3,9.5,2.1,0.8,-2.0
COCCCN1C(=O)C(=O)/C(=C(/O)c2ccc(OC(C)C)cc2)C1c1ccncc1 (centres undefined),i,27.0,-4.8,-11.5,1.1,0.2,1.6,12.5
Cc1nc2ccccc2c(=O)n1NC(=O)c1ccccc1,i,-1.9,1.0,-7.2,-3.5,-0.4,2.6,-4.6
O=C(COC(=O)c1cccc(Br)c1)NCc1ccco1,x,2.2,x,-12.5,-21.8,-3.8,0.0,x
CCOC(=O)Cc1csc(SCC(=O)N(CC(C)C)c2c(N)n(Cc3ccccc3)c(=O)[nH]c2=O)n1,i,-14.0,x,-19.2,-15.5,0.4,-2.0,x
CCc1cc(=O)oc2cc(C)cc(OC(C)C(=O)NC(Cc3c[nH]c4ccc(O)cc34)C(=O)O)c12 (centres undefined),i,x,32.4,-3.3,-7.0,3.3,3.0,14.6
CC(=O)NC12CC3CC(C1)CC(C(=O)N1CCN(S(=O)(=O)c4ccc(Cl)s4)CC1)(C3)C2,i,-59.7,-4.5,-20.5,9.9,-3.0,-2.3,-3.1
CC1CCCCN1C(=S)NCc1ccco1 (centres undefined),i,-2.0,2.6,x,-3.6,2.4,5.7,6.4
CCCCCCCCNC(=O)/C(C#N)=C/c1ccccc1[N+](=O)[O-],i,u,-0.9,-5.7,55.8,-32.4,-4.6,-8.0
SMILES,Rce1 inhib,Env fusion inh,eIF4H inh,UUG fidelity,CSC inhib,MT1-MMP act inh,MT1-MMP act inh RFP,PABP FP inh
COC(=O)c1sccc1S(=O)(=O)Nc1ccc(C)cc1,x,1.5,2.0,x,-8.8,3.9,6.0,-1.7
O=C1OCc2cccc([N+](=O)[O-])c21,i,-8.2,0.6,x,-1.6,1.1,4.9,9.7
NC(=O)CSc1oc(-c2ccc(F)cc2)nc1S(=O)(=O)c1ccccc1,i,-30.9,-10.1,-11.4,x,-1.5,-0.1,-8.9
Cc1ccc(C)c(OCC(=O)NCCNC(=O)COc2cc(C)ccc2C)c1,i,19.3,-5.0,-22.5,1.9,-0.8,-1.5,-11.8
CC(=O)c1cccc(NC(=S)NC(=O)c2ccccc2)c1,i,-106.2,2.6,x,-6.5,1.3,0.7,-12.0
CCOC(=O)N1CCN(S(=O)(=O)c2cc(C)c(C)cc2C)CC1,i,-72.0,-4.9,8.2,x,-2.2,-5.4,5.6
COc1ccc(N2C(=O)C3C(c4ccc(C(=O)O)cc4)NC(Cc4ccccc4)(C(=O)O)C3C2=O)c([N+](=O)[O-])c1 (centres undefined),u,4.0,4.8,x,-7.8,0.6,3.8,-3.2
C[C@@H]1CN([C@H](C)CO)C(=O)c2cc(NC(=O)Cc3cn(C)c4ccccc34)ccc2O[C@H]1CN(C)C(=O)Nc1ccc2c(c1)OCO2,x,-14.4,x,-0.8&-10.3,-10.8,-4.6,1.6,x
OCCOCCNc1ncnc2sc(-c3ccccc3)cc12,i,-128.4,-18.3,-5.9,-0.1,5.4,-4.4,-7.5
CSc1nsc(/C=C/Nc2cccc(Cl)c2)c1C#N,x,x,3.1,5.7,12.7,-31.8,3.6,7.3
COCCn1c(SCC(=O)Nc2ccccc2)nc2c1c(=O)[nH]c(=O)n2C,i,0.9,-1.4,-8.7,-3.1,2.3,3.7,-7.4
O=C(CS(=O)(=O)c1cn(Cc2ccc(Cl)cc2)c2ccccc12)N1CCOCC1,i,x,-9.6,-7.6,5.9,4.0,-0.7,-8.6
O=C1/C(=C/c2cccs2)SC(=S)N1NS(=O)(=O)c1ccccc1,i,6.5,-9.1,-1.0,7.1,0.1,5.6,12.0
Cn1nccc1C(=O)NC1CC(C)(C)Cc2c1cnn2-c1ccc(F)cc1 (centres undefined),i,9.2,-0.4,-7.8,-11.0,-1.7,-3.5,-12.9
O=C(Nc1ccon1)c1cccc(S(=O)(=O)N2CCCC2)c1,i,13.2,-0.9,-6.5,-10.9,11.9,2.9,1.8
CC1CCC2(CC1)NC(=O)N(CC(=O)Nc1ccc3c(c1)OCO3)C2=O (centres undefined),x,x,x,2.8,1.1,1.0,0.8,x
COc1ccc(C(C(=O)NCC2CCCO2)N(Cc2ccccc2)C(=O)c2snc(C(N)=O)c2N)cc1OC (centres undefined),i,0.9,-1.8,3.1,-3.5,-0.4,-0.8,-3.0
Cc1nc(SCc2ccc(C#N)cc2)n[nH]1,i,1.0,12.1,-25.9,x,2.0,1.6,13.6
Cc1nn(C)cc1C(=O)c1ccccc1,i,20.5,x,-8.5,1.5,0.7,1.9,x
C=CCSc1nnc(-c2cc3c(C(F)(F)F)nn(C)c3s2)n1C,i,x,-4.1,-5.1,-6.6,4.5,0.4,-3.7
CC(=O)Nc1cc(C(=O)N(C)Cc2ccco2)ccc1Sc1ccc(C)cc1,i,-9.8,2.0,7.1,19.3,-0.8,2.4,0.7
O=C(O)CC(NC(=O)c1ccccc1NC(=O)c1ccccc1)C(=O)O (centres undefined),i,x,4.1,-14.9,-1.2,3.4,6.6,0.7
O=C(c1cccs1)N1CCCC(c2ccccc2)C1 (centres undefined),i,-46.6,-11.7,5.0,-9.9,-2.2,-4.9,-15.3
CC(=O)c1c(C)[nH]c(C(=O)COC(=O)c2ccc(Cl)nc2)c1C,x,x,x,-7.7,-5.4,-5.3,-3.4,x
CC(=O)Nc1ccc(C(=O)Cn2c3[n+](c4c(F)c(F)ccc42)CCCCC3)cc1,i,-10.5,0.5,x,-14.5,-0.3,2.9,8.7

# As entered above.
# `O=C(CS(=O)(=O)c1cn(Cc2ccc(Cl)cc2)c2ccccc12)N1CCOCC1` in eIF4H inh: -9.6
# `CC(C)C[C@H]1CN=C(Nc2ccccc2)N1CC1CCCCC1` in Env fusion inh: -8.2

# The list goes on.
SMILES,Rce1 inhib,Env fusion inh,eIF4H inh,UUG fidelity,CSC inhib,MT1-MMP act inh,MT1-MMP act inh RFP,PABP FP inh
COC(=O)c1cc(OC)nc2c1c(=O)n(C)c(=O)n2C,i,x,-1.4,x,-6.3,-2.9,0.9,-3.2
O=C1CSC(=S)N1N1C(=O)c2cccc([N+](=O)[O-])c2C1=O,i,x,34.3,x,-5.5,x,x,-15.2
CC(=O)Nc1ccc(S(=O)(=O)NC2CC(=O)N(c3cccc(F)c3)C2)cc1 (centres undefined),i,11.0,x,-7.2,-5.9,0.5,-2.3,x
O=C(COc1ncnc2ccccc12)NCC1CCCO1 (centres undefined),i,4.2,-8.3,x,-3.3,-0.3,1.8,-6.2
Cc1ccc(P(=O)(CO)c2ccc(C)cc2)cc1,x,1.4,-5.7,-10.0,5.4,4.2,4.6,-5.8
CCC(C(=O)Nc1nccs1)(C(F)(F)F)C(F)(F)F,i,-10.9,-1.8,-21.1,0.1,3.3,2.9,9.2
COc1ccc(C(=O)OCC(=O)Nc2cc(C)on2)cc1S(=O)(=O)N1CCOCC1,i,-18.4,-8.3,-25.1,-11.0,-4.4,3.1,3.2
Cc1nc(C)n(CC(O)COc2ccc3cc(Br)ccc3c2)n1 (centres undefined),i,29.3,-6.2,6.3,7.0,10.0,-3.7,1.1
COc1cc(C(=O)N2CCCc3ccccc32)c([N+](=O)[O-])cc1OC,i,-29.7,-0.5,-9.0,-14.2,-5.0,3.1,-2.9
O=C(Nc1ccc2ccccc2n1)c1ccc(Cl)cc1,i,-105.3,0.0,-5.2,13.8,-3.0,-8.4,-1.2
Cc1cc(SCC2=NNC(=O)C2)c(Cl)cc1Cl,x,-34.3,4.4,-48.6,34.2,3.7,3.5,-6.1
Cc1nc(SCC(=O)N2CCc3ccccc3C2)c2c(C)c(C)sc2n1,i,u,2.7,-15.2,16.7,3.7,0.6,-2.4
Cc1nnc(NC(=O)CCC(=O)NCc2ccco2)s1,i,x,3.2,6.7,0.5,1.1,3.1,-0.4
CCn1nc(C)c(CN2CCCCC2C(=O)Nc2ccc(Oc3cccnc3)cc2)c1C (centres undefined),x,x,-3.5,-21.0,-6.8,2.6,-6.7,-15.1
Cc1cc2c(c(=O)o1)C(C(C)C)C(C#N)=C(N)O2 (centres undefined),i,-17.7,-4.3,-17.3,9.9,0.0,4.2,-4.2
Fc1ccccc1NC(=S)N1CCN(Cc2ccc3c(c2)OCO3)CC1,i,15.5,-1.2,x,-8.6,-2.3,3.1,-12.5
Cc1cccc(/C(N)=N/OC(=O)c2cccc3ccccc23)c1,i,-89.4,4.6,-14.2,-3.8,-0.7,-1.0,9.6

# Only MT1-MMP act inh RFP, eIF4H inh and UUG fidelity (5 entries from above):
SMILES	MT1-MMP act inh RFP	eIF4H inh	UUG fidelity
Cc1nnc(NC(=O)CCC(=O)NCc2ccco2)s1	3.1	3.2	6.7
COc1ccc(C(=O)OCC(=O)Nc2cc(C)on2)cc1S(=O)(=O)N1CCOCC1	3.1	-8.3	-25.1
COc1cc(C(=O)N2CCCc3ccccc32)c([N+](=O)[O-])cc1OC	3.1	-0.5	-9.0
Cc1nc(C)n(CC(O)COc2ccc3cc(Br)ccc3c2)n1 (centres undefined)	-3.7	-6.2	6.3
COC(=O)c1cc(OC)nc2c1c(=O)n(C)c(=O)n2C	0.9	-1.4	x

# This is a subset; the hit share may differ from the screen's.
